StopGo FLuc: lowers the firefly signal of an FMDV 2A StopGo reporter; HEK cells with a luciferase reporter of 2A StopGo recoding; Potency, µM (top dose mostly 57.5 µM), for the others: at the top dose signal change, negative = less light; 120,000 compounds, 0.23% hits; AID 1745856; active = well fitted falling curve with a large enough effect; inconclusive = small, poorly fitted or top-dose-only effect; inactive = no such curve, though single readings can be large or run the other way; further: nearly all actives have a fitted effect of over 60% in size; overnight with compound
StopGo RLuc: FMDV 2A StopGo reporter, Renilla signal | Potency, µM (doses to about 57.5 µM), inactives show at the top dose signal change, negative = less light | HEK cells with a luciferase reporter of 2A StopGo recoding | 120,000 compounds, 0.32% hits; active means well fitted falling curve with a large enough effect; inconclusive means small, poorly fitted or top-dose-only effect; inactive means no such curve, though single readings can be large or run the other way; further: nearly all actives have a fitted effect of over 55% in size; overnight with compound
Numbers without * were called inactive; ? = inconclusive; & = joins results of further samples; [ ] = another dose, or the depositor's remark. On the % scale 0 is the no-effect control and ±100 the full control effect; potency means the concentration at half of the fitted maximal effect. An excerpt, so the mix of outcomes need not match the whole.

SMILES | StopGo FLuc | StopGo RLuc
COc1ccc(-c2oc3ncn4nc(-c5ccccc5OC)nc4c3c2-c2ccc(OC)cc2)cc1 | -9.2% | -11.6%
CCOc1ccc(CNC(=O)c2ccc3c(c2)nc2n3CCOC2)cc1 | 30.6%[activator] | -12.7%
CCOc1cccc2cc(-c3nc(-c4ccccc4C)no3)c(=O)oc12 | 28.5% | -18.4%
O=C(Nc1ccc([N+](=O)[O-])c(C(F)(F)F)c1)C12CC3CC(CC(C3)C1)C2 | 1.2% | 9.6%
Cc1ccc(NCc2ccccc2CO)c(C)c1 | 0.0% | 19.9%
O=C(O)CCC(=O)Nc1ccc(S(=O)(=O)Nc2nccs2)cc1 | 7.6%[11.5 µM] | -3.3%
COc1cccc(C2=NN(C(C)=O)C(c3ccc4nccnc4c3)C2)c1 (configuration not stated) | 35.4%[activator] | -9.1%
COc1cccc(C(=O)N2CCc3c([nH]c4ccccc34)C2c2ccc(SC)cc2)c1 (configuration not stated) | -12.5% | 13.4%
Cc1cccc(C(c2sc3nc(-c4ccco4)nn3c2O)N2CCN(c3ccccc3)CC2)c1 (configuration not stated) | -3.8% | 12.2%
Cc1cccc(C(C)C)c1NC(=O)CCl | -9.2% | ?
CC(C)OC(=O)c1c(-c2ccccc2)c(-c2ccccc2)nn(C)c1=O | -7.1% | 4.2%
COC(=O)c1ccccc1NC(=O)Cn1nnc2sc(-c3ccccc3)cc2c1=O | -6.4% | 12.2%
CCOc1cc(C2C=C(C(=O)O)Nc3ncnn32)ccc1OC(C)C (configuration not stated) | 9.1% | 10.3%
CCC(C)NC(=O)Nc1ccc(-c2noc(-c3ccc(C)s3)n2)cc1 (configuration not stated) | -12.1% | ?
COC(=O)c1ccc(-c2csc(NC(=O)c3cc(=O)c4ccccc4o3)n2)cc1 | 2.7% | 10.1%

Compounds above that contain a COOH group (2):
SMILES | StopGo FLuc | StopGo RLuc
O=C(O)CCC(=O)Nc1ccc(S(=O)(=O)Nc2nccs2)cc1 | 7.6%[11.5 µM] | -3.3%
CCOc1cc(C2C=C(C(=O)O)Nc3ncnn32)ccc1OC(C)C (configuration not stated) | 9.1% | 10.3%

(further entries)
SMILES | StopGo FLuc | StopGo RLuc
CCC(=O)N1CCc2cc(S(=O)(=O)CCC(=O)NCc3ccc(OC)cc3)ccc21 | -1.6% | -8.7%
O=C1C(I)=CC(=C(c2cc(I)c(O)c(I)c2)c2ccccc2C(=O)O)C=C1I | -10.9% | 3.6%
CCOc1ccc(CNC(=O)C2Cc3cc(S(=O)(=O)N4CCCCCC4)ccc3N2C(C)=O)cc1 (configuration not stated) | -19.1% | -4.3%
Oc1ccc(C2(c3ccc(Br)cc3)CCCCC2)cc1 | -7.8% | -14.5%
Cc1cc(S(=O)(=O)N2CCN(Cc3noc(CCC(=O)N4CCCCC4)n3)CC2)ccc1F | -0.9% | -0.6%
CCN(CC)S(=O)(=O)c1ccc2c(c1)N(CC(=O)Nc1c(C)cccc1C)C(=O)C1CCCN21 (configuration not stated) | 18.2% | -0.9%
Cc1ccc(Sc2ccc(NC(=O)c3cccc(C)c3C)cc2)c(C)c1 | 14.0% | 16.3%
Cn1cc(C(=O)OCC(=O)Nc2ccc(N3CCOCC3)cc2)c2ccccc21 | -5.7% | -10.5%
CCn1c(=O)c2cc(C(=O)NCCCN3CCC(C)CC3)sc2c2ccccc21 | ? | ?
Clc1cccc(N2CCN(c3c4c(nc5nncn35)CCC4)CC2)c1 | 0.0% | -7.0%
N#C/C(=C/c1cccc(OCc2ccc(Cl)cc2)c1)c1nc2ccccc2s1 | 0.0% | -9.2%
c1cc(-c2noc(CSc3nnnn3C3CCCCC3)n2)cs1 | 76.5%[activator] | 31.9%[activator]
CC(C)(C)C(=O)Nc1ccc2nc(SCC(=O)N3CCOCC3)sc2c1 | 11.3% | 5.2%
Cc1ccc(S(C)(=O)=O)cc1C(=O)NC1CCC(C)CC1 (configuration not stated) | -2.5% | -8.5%
Cn1nc(C(=O)N2CCN(c3ccccc3Cl)CC2)c2ccccc2c1=O | 56.2%[activator] | 43.2%[activator]
CC1CCC(C(C)C)C(OC(=O)COC(=O)/C=C/c2ccc3c(c2)OCO3)C1 (configuration not stated) | 0.0% | 4.8%
C=C(C)C1CC=C(C)/C(=N/NC(=S)Nc2ccc(C)cc2)C1 (configuration not stated) | 0.0% | 47.4%[activator]
CCC(=O)N1CCc2cc(Br)cc(S(=O)(=O)CCC(=O)Nc3cccc(CC)c3)c21 | -8.6% | -6.6%
COc1ccc(NC(=O)C(C)Sc2cc(-c3ccccc3)nc(C)n2)cc1Cl (configuration not stated) | -2.6% | -6.9%
CC(=O)Nc1ccc(NC(=O)CNC(=O)c2ccc3nc(-n4cccc4)sc3c2)cc1 | 25.6% | 5.6%
CC(C)c1ccc(C(=O)NCc2ccco2)cc1 | 0.0% | 0.0%
CN1CCN(C(C)(C)CNC(=S)Nc2ccc(Cl)cc2Cl)CC1 | -0.5% | 2.5%
CCC(=O)N1CCc2cc(Br)cc(S(=O)(=O)CCC(=O)N3CCN(c4ccccc4OC)CC3)c21 | -8.4% | -14.0%
CCCC1(C)NC(=O)N(Cc2coc(-c3cccs3)n2)C1=O (configuration not stated) | 5.3% | -5.9%
COc1ccc2[nH]c(C(=O)NCCC(=O)Nc3ccc4c(c3)OCCO4)cc2c1OC | 13.1% | 14.2%
CCOc1cc(-c2ccc(OC(=O)c3ccc(Cl)cc3)c(OC)c2)cc(=O)c2c(C)oc(C)c12 | -12.6% | -9.6%
CCSc1oc(-c2ccc(C)cc2)nc1S(=O)(=O)c1ccccc1 | 5.0% | 91.4%[activator]
CCOc1cc(NC(=O)c2ccc(Cn3cc(Br)cn3)cc2)ccc1OC(F)F | 14.4% | -6.0%
CC(C)c1ccc(NC(=O)CSC2=Nc3ccccc3C3=NC(CC(=O)NC4CCCCC4)C(=O)N23)cc1 (configuration not stated) | -27.6% | ?
COc1ccc(C2CC(=O)N3CN(C4CCCCC4)CSC3=C2C#N)c(OC)c1 (configuration not stated) | -21.3% | 7.0%
Cc1cc(C(=O)NCc2ccccc2Cl)c2c(C)nn(-c3cccc(F)c3)c2n1 | -6.4% | -10.2%
COc1ccccc1-c1c(C(F)(F)F)oc2c(CN3CCCCC3C)c(O)ccc2c1=O (configuration not stated) | -8.9% | -6.5%
CCOc1ccc(C2C(C(=O)c3ccc(C)o3)=C(O)C(=O)N2Cc2cccnc2)cc1OC (configuration not stated) | 24.4% | 16.8%
COc1cc(CN(C(=O)c2cc(NC(C)=O)cc(NC(C)=O)c2)C2CC2)ccc1OC(F)F | 5.6% | -0.9%
COC(=O)c1sccc1NC(=O)CC1(C(=O)O)CCCCC1 | 3.9% | -1.6%
CCCCCn1c(=O)[nH]c2cc(C(=O)N3CCN(c4cccc(C(F)(F)F)c4)CC3)ccc2c1=O | -9.4% | -5.4%
Cc1ccc(-c2nn3c(-c4ccccc4C)nnc3c3ccccc23)cc1 | 8.3% | 16.7%
CCOc1ccccc1C(=O)Nc1cc(C)ccn1 | 64.1%[activator] | 12.9%
CCCCCCCCCCCC[N+](C)(C)CCOc1ccccc1 | -11.2%[11.5 µM] | -14.4%
Cc1ccc(C(C)C)c(OCCSc2nc3ccccc3n2CC(O)CO)c1 (configuration not stated) | -9.3%&-10.8% | -15.3%&-16.2%
O=C(NCc1ccncc1)c1cccc2cccnc12 | 8.9% | -3.9%
Cc1nc2n(c(=O)c1CCN1CCC(c3noc4cc(F)ccc34)CC1)CCCC2 | -5.3% | 1.8%
O=C(CCc1ncc(-c2ccc(F)cc2)o1)NCc1ccc(OC(F)F)cc1 | 74.1%[activator] | -11.0%
Cc1cc(C)c(S(=O)(=O)NCCc2csc3nc(-c4ccc(F)cc4)nn23)c(C)c1 | ? | -6.5%
COC(=O)CCc1ccc(OCC(O)CNC(C)C)cc1 (configuration not stated) | -13.8% | -6.9%
CCC1CCc2c(sc(NC(=O)/C=C/c3ccc(C(C)C)cc3)c2C#N)C1 (configuration not stated) | 3.7% | -2.1%
CCCOc1ccccc1C(=O)Nc1ccc(OC)c2ncccc12 | 7.6% | 9.4%
O=C(O)CNS(=O)(=O)c1ccccc1F | 3.9% | 1.0%
CC(Sc1nc(CN2CCOCC2)nc2ccccc12)C(=O)NC1CC1 (configuration not stated) | 8.9% | -9.6%
COc1ccccc1Nc1nc(N2CCOCC2)c2cnn(C)c2n1 | -4.9% | -1.7%
COc1cc2oc(=O)cc(C)c2cc1CCC(=O)O | -2.0% | 1.2%
CCOc1cccc(CNCc2ccco2)c1 | 20.4% | -8.6%
O=C(CN1C(=O)c2ccccc2S1(=O)=O)c1cccc(Br)c1 | 23.3% | 4.4%
C=CCn1c(N2CCN(c3cccc(Cl)c3)CC2)nc2c1c(=O)[nH]c(=O)n2C | -11.6% | -9.7%
O=C(Nc1ccccc1)N(Cc1cccc(Cl)c1)c1ccccn1 | 21.7% | 26.4%
Cn1c(=O)[nH]c2cc(-c3noc(-c4ccc(Br)cc4)n3)ccc21 | 1.4% | -11.0%
Cc1ccc(C(=O)N/N=C/C(C)c2ccccc2)c(C)c1 (configuration not stated) | 92.2%[activator] | -0.3%
COc1ccc(NC(=O)C(=O)NCCc2sc(-c3ccc(Cl)cc3)nc2C)cc1 | 0.0% | 3.3%
COc1cc(CC(C)N)cc2c1OCO2 (configuration not stated) | 0.0%[27 µM] | -15.2%[129 µM]
CCOC(=O)c1cnc2c(C)cc(C)cc2c1Nc1ccc(O)cc1 | 1.4% | -6.0%

One compound at a time, from the list above:
`CCOC(=O)c1cnc2c(C)cc(C)cc2c1Nc1ccc(O)cc1` as listed: StopGo FLuc = 1.4%; StopGo RLuc = -6.0%
`O=C(CCc1ncc(-c2ccc(F)cc2)o1)NCc1ccc(OC(F)F)cc1` as listed: StopGo FLuc = 74.1%[activator]; StopGo RLuc = -11.0%

(listing goes on)
SMILES | StopGo FLuc | StopGo RLuc
CCc1ccc2oc(C(=O)Nc3nc(-c4ccccc4)ns3)c(C)c2c1 | -24.2% | -9.7%
COc1cc(C(C)=O)ccc1OCc1ccc(C#N)cc1 | 127.0%[activator] | 8.6%[1.06 µM]
O=C(CSc1nc2cc(Cl)ccc2s1)NC1CCCC1 | 15.9% | 16.4%
CC(C)c1ccc(S(=O)(=O)N2CCC(n3c(C(F)(F)F)nc4cccnc43)CC2)cc1 | -4.6% | -7.3%
CC1CCCN(Cc2nc3c(c(=O)n(C)c(=O)n3C)n2Cc2ccc(Cl)cc2Cl)C1 (configuration not stated) | -13.7% | -5.6%
CN(C)c1ccc(CNC(=O)c2ccc(Cn3c(=O)c4cccn4c4cccnc43)cc2)cc1 | -3.9% | -1.1%
COc1cc(-c2cc(C(=O)O)c3cc(C)ccc3n2)ccc1O | 1.2% | -3.7%
CC(=O)NCCNC(=O)c1ccc2ccccc2n1 | 28.7% | -1.2%
COc1cccc(-n2c(-c3ccccc3F)nc3c(cnn3-c3ccc(C)cc3)c2=O)c1 | -5.2% | -6.8%
COc1ccc(-c2nn(C)c3sc(C(=O)Nc4cccc(F)c4)cc23)cc1OC | 12.8% | -3.5%
COC(=O)CSc1ccc2nnc(CCNS(=O)(=O)c3ccc(C)cc3)n2n1 | -22.7% | 34.8%[activator]
CCCn1c(CSc2nnc(C3CC3)n2-c2ccccc2)nc2cc(S(=O)(=O)N(C)C)ccc21 | 4.0% | 78.0%[activator]
Cc1ccc(CNC(=O)c2cc(-c3ccncc3)nc3ccccc23)cc1 | 1.4% | 14.7%
CC(C)CCNc1nc(Nc2ccccc2)c2cnn(C)c2n1 | 8.7% | -2.6%
CCCCN(C)S(=O)(=O)c1ccc(C(=O)Nc2ccc(Cl)c3ncsc23)cc1 | -12.3% | 9.9%
Cc1ccccc1C(=O)NC1CCCCC1C (configuration not stated) | 0.0% | 0.0%
CCOC(=O)c1ccccc1NC(=O)CN1CCCN(Cc2ccccc2)S1(=O)=O | -4.7% | 25.7%
CCN(CC)C(=O)CN(C)c1ncnc2sc3c(c12)CCC(C)C3 (configuration not stated) | -11.2% | -13.0%
O=C(CCSc1ccc(Cl)cc1)Oc1ccc2ccc(=O)oc2c1 | 6.8% | 11.3%
COc1ccc(NC(=O)NC(C)c2c(-n3cccc3)sc(C)c2C)cc1OC (configuration not stated) | -8.5% | -5.8%
Cc1ccc(N(Cc2cccs2)C(=O)Nc2cccc(Cl)c2)cc1 | -12.4% | 5.2%
Cc1ccc(-n2ncc3c(Nc4ccccc4C)ncnc32)cc1 | 113.3%[activator] | 3.1%
CCONC(=O)Cc1ccccc1C | -2.6% | 7.1%
O=C(CCc1nc2ccccc2s1)NCc1cccc(C(F)(F)F)c1 | 93.2%[activator] | 2.6%
COC(=O)/C(=C/c1cccc(OC)c1)c1ccccc1 | 7.0% | 8.1%
CCOc1ccc(CN(C)C(=O)Cn2c(=O)c3c(ncn3CC)n(Cc3ccccc3)c2=O)cc1 | 18.1% | 21.3%
CS(=O)(=O)Cc1cccc(C(=O)Oc2ccc(Cl)c(Cl)c2)c1 | 0.0% | 10.0%
CC(C)c1ccc2c(c1)-c1ccccc1S(=O)(=O)N2CC(=O)NCc1ccco1 | 0.0% | 181.4%[activator]
CCCCOC(=O)c1ccc(O)cc1 | 26.3%[11.5 µM] | 6.3%
Cc1ccccc1N1CC(C(=O)Nc2ccc(Br)cc2)CC1=O (configuration not stated) | -3.8% | 52.0%[activator]
Cc1ccc2c(=O)c(-c3nc(-c4ccc(Cl)cc4)no3)cn(CC(=O)NCc3ccco3)c2n1 | 11.0% | -4.1%
Cc1ccc(S(=O)(=O)Nc2ccc(-c3cn4ccsc4n3)cc2)s1 | 47.1%[activator] | 173.8%[activator]

Screens deposited in PubChem BioAssay by National Center for Advancing Translational Sciences (NCATS).
